Sa helicase inh: S. aureus DNA helicase inhibition; purified S. aureus helicase, fluorescence unwinding assay; about half of the hits fall short of the stated cut; inhibition, %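 (tested at about 80 µM)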; 120,000 tested, 0.05% active; AID 485395;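 active means both duplicates at 50% or more, or one of them with a favoured structure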;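 further: 0% = mean of negative control wells and 100% = mean of positive control wells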
MgrA-DNA mod: S. aureus MgrA-DNA binding modulation | fluorescence polarization | inhibition, %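 (about 10 µg/mL by stock and volumes)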 | 84,000 tested, 0.13% active | AID 602314;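 active means above 50% in either of two replicates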;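 further: 0% = protein plus DNA without compound and 100% = DNA alone without protein; higher means less MgrA bound to DNA so lower polarization; one replicate is shown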
Active calls of the source: *; . = no result given; & = joins results of further samples. A portion of the library; count on the stated rates, not on these rows.

The line under a structure holds: Sa helicase inh | MgrA-DNA mod
> CCOC(=O)c1c(C2CC2)csc1NC(=O)Cn1c(SC(C)C)nc2ccccc21
→ -20 | .
> Cc1cc(=O)oc2n[nH]c(CSc3ccc(Cl)cc3)c12
→ . | -0.1
> Cc1ccc(-c2ccc(O)cc2)cc1
→ -12 | -1.9
> CCCc1cc2c(=O)c(-c3ccccn3)c(C)oc2cc1OC(C)=O
→ -1 | .
> CCOc1ccc2c3c(c(=O)oc2c1)CCC3
→ 11 | .
> COC(=O)c1cc(OC)c(OC)cc1NS(=O)(=O)c1ccc(Cl)cc1Cl
→ . | -3.5
> Cc1cc(C)c2c(c1)/C(=N\N=c1\sc3ccccc3n1C)C(=O)N2
→ -32 | .
> CCc1ccc(/C=C2/C(=O)N(C3CCCCC3)C(=S)N2C)cc1
→ -3 | 3.8
> O=c1c(/C=N\O)coc2ccc(F)cc12
→ . | -0.4
> O=C(CN1C(=O)c2ccccc2Sc2ccccc21)NCc1ccccc1
→ 9 | .
> COc1cc(S(=O)(=O)Nc2ccc(NC(C)=O)cc2)ccc1F
→ -7 | 0.6
> Cc1ccc(N2C(=O)/C(=C\c3ccc4c(c3)OCO4)N=C2SCC#N)cc1
→ -18 | .
> COc1cccc2c(=O)n(CC(=O)N3CCc4ccccc43)ccc12
→ 11 | .
> NC(=O)C1CCN(C2CC(=O)N(Cc3ccc4c(c3)OCO4)C2=O)CC1 (stereo unspecified)
→ -11 | .
> CC(C)(C)C(=O)CC1(O)C(=O)N(Cc2ccccc2)c2ccccc21 (stereo unspecified)
→ -1 | 1.8
> CCOC(=O)c1ccc(OC)c(OC)c1Cl
→ . | 0.2
> O=C(CN1C(=O)c2ccccc2S1(=O)=O)N1CCCC1c1ccc2c(c1)OCCCO2 (stereo unspecified)
→ 1 | .
> Cc1ccc2nc(-c3ccccn3)[nH]c2c1
→ 14 | -1.2
> Cc1ccccc1Cn1c(=O)n(CCCCC(=O)NC2CCCC2)c(=O)c2ccccc21
→ 12 | 0.0
> CCN(CC)C(=O)c1cccc(OC)c1
→ 9 | -2.6
> CC(=O)OC1=C(C(=O)c2ccccc2)N(C)S(=O)(=O)c2ccccc21
→ 20 | 1.7
> Nc1nc(SCC(=O)NCCO)nc2sc3c(c12)CCCC3
→ 17 | .
> CCC(Sc1nc2ncccc2c(=O)n1-c1ccccc1)C(=O)Nc1ccc(OC)cc1 (stereo unspecified)
→ 0 | -0.8
> Cc1cc(Cl)ccc1NS(=O)(=O)c1ccc2c(c1)[C@H]1C=CC[C@H]1[C@@H](c1ccccc1)N2
→ 1 | 2.1
> O=C(NC1CC1)/C(=C/c1ccc[nH]1)NC(=O)c1ccccc1
→ -11 | 7.2
> O=C(Oc1cccc(N2CCOCC2)c1)c1ccc(CSC(=S)N2CCSCC2)cc1
→ . | 1.1
> CC1(C)CC2(CC(c3ccccc3F)c3cc(Cl)c(O)cc3O2)NC(=S)N1 (stereo unspecified)
→ 8 | 0.3
> Cc1ccc(C(=O)CSc2ncn[nH]2)cc1
→ -6 | .
> c1ccc(C23CC4CC(CC(C4)C2)C3)cc1
→ . | -1.2
> O=C(NCN1CCN(c2ccccn2)CC1)c1cnccn1
→ -17 | .

The listing continues:
The line under a structure holds: Sa helicase inh | MgrA-DNA mod
> O=c1/c(=C/c2ccc(-c3ccc(Br)cc3)o2)sc2nc3ccccc3n12
→ . | -1.5
> CC(=O)N1N=C(c2c(-c3ccccc3)c3cc([N+](=O)[O-])ccc3[nH]c2=O)CC1c1cccc(Br)c1 (stereo unspecified)
→ . | 0.8
> COc1ccc(C(=O)CSc2nnc(-c3cc4cc(Cl)ccc4o3)n2C)cc1
→ -10 | 1.9
> O=C(CCN1C(=O)/C(=C\c2cccs2)SC1=S)NC1=NCCS1
→ -1 | 1.3
> c1ccc(CN2CN=C(Nc3nc4ccccc4o3)NC2)cc1
→ 12 | -1.7
> C=CCNS(=O)(=O)/C=C/c1ccccc1
→ -4 | .
> Cc1cccc(N/C(N)=N/c2nc(C(F)(F)F)cc(=O)[nH]2)c1
→ 4 | 0.2
> CCCc1c(C)nc(SCC(C)C)[nH]c1=O
→ 0 | 1.5
> O=C(CSc1ccc(F)c(Cl)c1)c1ccc2c(c1)OCCO2
→ . | 1.9
> COC(=O)Cn1cc(C2C(C#N)=C(N)OC3=C2C(=O)CC(C)(C)C3)c2ccccc21 (stereo unspecified)
→ -5 | 1.9
> O=C(COCc1cc(-c2ccco2)on1)NCC1CCCO1 (stereo unspecified)
→ 16 | .
> O=C(O)CCC(=O)N1N=C(c2c(-c3ccccc3)c3cc(Br)ccc3[nH]c2=O)CC1c1ccccc1Cl (stereo unspecified)
→ . | 0.8
> c1ccc(-c2csc3ncnc(N4CCNCC4)c23)cc1
→ . | -17
> COC(=O)C1=C(C)N(Cc2ccccc2)C(=O)/C1=C\c1cccc(Cl)c1
→ 10 | 6.4
> Nc1nc2c(c(=O)[nH]1)N(C=O)C(CNc1ccc(C(=O)N[C@@H](CCC(=O)O)C(=O)O)cc1)CN2 (stereo partly specified)
→ . | 3.2&-0.8
> Cc1ccc(NC(=O)CNCC(C)(C)N2CCOCC2)c(Cl)c1
→ -6 | .
> O=C(Nc1nncs1)c1ccc(F)cc1
→ 11 | -6.8
> FC(F)(F)c1cc(NC(=S)SCCSC(=S)Nc2cc(C(F)(F)F)cc(C(F)(F)F)c2)cc(C(F)(F)F)c1
→ . | -1.4
> COC(=O)c1csc(S(=O)(=O)Nc2ccc(Cl)cc2)c1OC
→ . | -0.4
> O=C(O)C1(c2ccc3c(c2)OCCO3)CCCC1
→ -25 | .
> CC(C)C(=O)Nc1cccc(S(=O)(=O)c2cccc(NC(=O)C(C)C)c2)c1
→ 6 | -0.4
> ON=C1CCCCC1
→ 17 | .
> Cc1cccc(OCC(=O)Nc2ccccc2N2CCCCC2)c1
→ -19 | 3.0
> CCNC(=S)NC1CC2CCC1C2 (stereo unspecified)
→ -5 | 4.2
> O=C(OCc1nc2ccccc2c2ccccc12)C1=COCCO1
→ -13 | .
> COc1ccc(CCNc2ncc3c(n2)c(=O)c(C#N)c2[nH]c4ccccc4c(=O)n23)cc1OC
→ 4 | .
> O=C1C(=Nc2cccnc2)c2ccccc2N1Cc1ccccc1
→ -4 | .
> CC(C)[C@H](NC(=O)c1ccccc1)C(=O)OCn1nnc2ccccc2c1=O
→ -6 | .
> COc1ccc(NC(=S)N(C(C)C)C2CCN(C(C)C)CC2)cc1
→ 11 | .
> COc1ccc(CCNC(=O)c2cc(=O)[nH]c3ccc(Br)cc23)cc1OC
→ 5 | .

The results go on:
The line under a structure holds: Sa helicase inh | MgrA-DNA mod
> COc1ccc2c(c1)c1c3n2CCN(C2CCCCC2)C3=NCC1
→ 8 | 0.2
> CN1C(=O)/C(=C(/C#N)C(=O)N2CCCC2)c2ccccc21
→ 5 | .
> CCc1ccccc1NC(=O)CCS(=O)(=O)c1ccc2c(c1)CCCN2C(C)=O
→ -8 | .
> CCOC(=O)C(C#N)C(Cc1ccccc1)C1CCOC(C)(C)C1 (stereo unspecified)
→ 16 | .
> CCOc1cc2[nH]c(=O)n(CCc3ccc(OC)c(OC)c3)c(=O)c2cc1OCC
→ -9 | .
> CCSC1=NSC2=NC(=O)/C(=C\c3ccc(OC(=O)c4ccco4)c(Cl)c3)C(=N)N12
→ 21 | 1.8
> Cc1cccc(N2C(=O)CN(Cc3cccs3)C2=S)c1
→ 7 | .
> CCC(C)NC(=O)CSc1nc2ccc(Br)cc2c2nc3ccccc3n12 (stereo unspecified)
→ 3 | 0.9
> O=c1c(-c2ccccc2)coc2c(CN3CCCCCC3)c(O)ccc12
→ -43 | .
> Cc1nn(-c2ccccc2Cl)c2[nH]c(=O)cc(C(F)(F)F)c12
→ 5 | .
> CCOc1ccccc1NC(=O)C1SC(=Nc2ccccc2OC)C(C(N)=O)=C1N (stereo unspecified)
→ -11 | .
> COc1ccc(-c2ccc(/C=C3\C(=O)N(c4cccc(Cl)c4)N=C3C)o2)cc1[N+](=O)[O-]
→ . | -0.9
> COc1ccc(OC)c(C2=NOC(C(=O)NC(C)(C)C)C2)c1 (stereo unspecified)
→ -9 | .
> CCN(CC)c1ccc(C=NCCc2ccccc2)c(O)c1
→ 10 | 1.6
> CCc1nn(Cc2ccccc2)c(=O)c2cc3cc(C)ccc3n12
→ 3 | -1.3
> O=S(=O)(c1c(Cl)sc(Cl)c1Br)N1CCCC1
→ . | -0.2
> O=C(O)CN1C(=O)c2ccccc2S1(=O)=O
→ . | -1.8
> O=C(COC(=O)c1ccccc1Nc1cccc(F)c1)c1ccccc1
→ . | 3.2
> Cc1cc2occ(CC(N)=O)c2cc1Cl
→ 4 | -1.0
> CCOC(=O)c1ccc(NC(=O)c2cc(=O)c3ccccc3o2)cc1
→ 1 | .
> CCOC(=O)C1=C(C)N=c2s/c(=C\c3cc(Br)ccc3O)c(=O)n2C1c1cccs1 (stereo unspecified)
→ . | 3.1
> Cc1ccc(-n2nc(C(=O)N3CCCC(C)C3)c3c4ccccc4n(C)c3c2=O)cc1 (stereo unspecified)
→ -37 | .
> COc1c[nH]n(-c2ccccc2)c(=O)c1=O
→ 2 | -3.2
> CCCn1c(-c2ccccc2Cl)nc2ccccc21
→ 6 | 5.3
> Cc1occc1C(=O)C(C#N)=C(NCc1cccnc1)NCc1cccnc1
→ . | -0.5
> C=CCn1c(SCC2=C(C(=O)OCC)C(C)NC(=O)N2)nnc1-c1ccoc1C (stereo unspecified)
→ 26 | .
> CN1C(=O)c2ccc(-c3nc4ccccc4c(=O)o3)cc2C1=O
→ 2 | .
> O=C(c1ncc[nH]1)c1ccccc1C(=O)N1CCCC1
→ -9 | 1.1
> Cc1c(Br)c(C(F)(F)F)nn1CC(N)=O
→ 3 | -1.0
> Cc1ccc2nc(-c3cccc(NC(=O)C4CCCO4)c3)oc2c1 (stereo unspecified)
→ 10 | 1.6

Compound profiles (already shown). Order of screens: Sa helicase inh | MgrA-DNA mod
O=C(c1ncc[nH]1)c1ccccc1C(=O)N1CCCC1 is listed as -9 | 1.1
CN1C(=O)c2ccc(-c3nc4ccccc4c(=O)o3)cc2C1=O is listed as 2 | .
C=CCn1c(SCC2=C(C(=O)OCC)C(C)NC(=O)N2)nnc1-c1ccoc1C (stereo unspecified) is listed as 26 | .
O=c1c(-c2ccccc2)coc2c(CN3CCCCCC3)c(O)ccc12 is listed as -43 | .

Carrying on:
The line under a structure holds: Sa helicase inh | MgrA-DNA mod
> Cc1cc(=O)n2nc(N)sc2n1
→ 10 | 0.5
> CCc1ccc(/C=C2\SC(=O)N(CC(=O)N3CCOCC3)C2=O)cc1
→ 8 | .
> CC1=CC(=NC(=O)c2ccco2)C(C)=CC1=O
→ 14 | .
> COc1ccc(Nc2nc(C(=O)N3CCN(C)CC3)cs2)cc1
→ -2 | -1.9
> CCOC(=O)C1CCN(c2cc(C(F)(F)F)nc3ccc(Br)cc23)CC1
→ -36 | .
> Cn1c(=O)c2c(nc(N3CCCC3)n2Cc2ccc(Cl)cc2)n(C)c1=O
→ 0 | .
> CSc1nnc(-c2ccccc2)o1
→ 4 | 1.7
> Cc1nnc(NC(=O)c2ccc3c(c2)C(=O)N(C2CCCCC2)C3=O)s1
→ -23 | 2.8
> CC1CCN(CCC(=O)Nc2ccc3c(c2)OCO3)CC1
→ -2 | -2.6
> C/C(=C\c1c2ccccc2cc2ccccc12)[N+](=O)[O-]
→ . | 1.7
> Cc1ccc(NC(=O)C(Cc2ccccc2)NS(=O)(=O)c2ccc3c(c2)oc(=O)n3C)cc1 (stereo unspecified)
→ 9 | .
> COc1ccc2c(C)cc3nnc(SCC(=O)N(C)Cc4ccco4)n3c2c1
→ 3 | .
> COC(=O)CCC(=O)Nc1ccccc1C(N)=O
→ -11 | .
> O=C1CSC(Cc2cccs2)=N1
→ . | 5.3
> O=c1n(-c2ccccc2)c(=O)n2n1CC(O)C2
→ 3 | -2.7
> N/C(=N\OC(=O)C12CC3CC(CC(C3)C1)C2)c1cccnc1
→ 37 | .
> CCN1CCN(c2ccc(NC(=O)c3cccc(Cl)c3Cl)cc2)CC1
→ -1 | -1.9
> O=C(NCCCN=C1NS(=O)(=O)c2ccccc21)c1ccncc1
→ 1 | -0.8
> CC1CCN(C(=O)CC(C(=O)N2CCc3ccccc32)n2ccnc2)CC1 (stereo unspecified)
→ -5 | .
> O=C1C2CCCCC2C(=O)N1c1cccc(OS(=O)(=O)c2ccccc2)c1 (stereo unspecified)
→ . | -0.5
> CCN(Cc1ccccc1)C(=O)Cn1c(=O)n(-c2cccc(OC)c2)c(=O)c2sccc21
→ 6 | 1.6
> CCOc1ccc2c(c1)C(NCCN1CCOCC1)CC(C)(C)O2 (stereo unspecified)
→ 8 | .
> COc1cc(OC)c(C2=NOC(C(=O)Nc3cc(C)n(CC(=O)NCc4ccco4)n3)C2)cc1Cl (stereo unspecified)
→ 19 | -0.1
> COc1ccc(CCC(=O)N(C)C)cc1
→ 5 | 5.0
> COC(C(=O)O)c1ccccc1 (stereo unspecified)
→ . | -3.6
> O=C(NCCc1ccccc1)C1=CCN(S(=O)(=O)c2ccccc2)CC1
→ 5 | -1.2
> CCOC(=O)c1cnn(CCOC(=O)c2ccc(C)cc2)c1NC(=O)c1ccc(C)cc1
→ 14 | -0.8
> CCN1CCN(C(C)C(=O)Nc2ncc(C)s2)CC1 (stereo unspecified)
→ 3 | -3.5
> OCc1nc2ccc(-c3ccc4nc(CO)[nH]c4c3)cc2[nH]1
→ 1 | -0.8
> Cc1ccc(-c2csc(-c3nnn(-c4cccc(Cl)c4)c3N)n2)cc1
→ -6 | .

Additional records.
The line under a structure holds: Sa helicase inh | MgrA-DNA mod
> CCN(CC)CCOc1cc(C)cc(C)c1
→ 4 | -1.2
> CCCC1=NN(c2cccc(C(=O)O)c2)C(=O)C1
→ 2 | 6.2
> O=C(NCc1csc(-c2cccs2)n1)Nc1ccc2c(c1)OCCCO2
→ 16 | .
> CC(=O)NCc1ccc(S(=O)(=O)N(C)C)cc1
→ 12 | .
> CC(C)c1ccc(C2C3CCc4ccccc4C3=NN2CCO)cc1 (stereo unspecified)
→ . | -1.5
> Cc1ccc(NC(=O)O/N=C/c2c(C)nn(C(C)(C)C)c2C)cc1Cl
→ -22 | .

Compound activity from PubChem.
